# Screening data deposited in PubChem BioAssay by National Center for Advancing Translational Sciences (NCATS).
# TRPV1 potentiator = human TRPV1 potentiation. Q8NER1. TRPV1-expressing cells, Fluo-8 calcium influx, capsaicin EC20 potentiation; host cell line not named in the record; control for the full effect not named in the record. potentiation, % at 8.33 µM. hit rate 0.02% among 320,000. AID 540277; active means potentiation above 80%; inconclusive means 30% to 80%; inactive means below 30%; also: 0% is about no effect
#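 Fluo-8 calcium influx in TRPV1-expressing cells, kinetic read (ex 480/em 520 nm). Compound added and read 3 min for agonist activity, followed by capsaicin at EC20 final and 2 min further read for enhancement.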
# D2 PAM = positive allosteric modulators of human D2 dopamine receptor | AID 624464 | hit rate 0.23% among 360,000 | potentiation, % (no concentration beside the values) | DiscoveRx D2 beta-arrestin cells, luminescence, 90 min; 100% = 57 uM dopamine signal; active = potentiation of 50% or more; inconclusive = 30% to 50%; inactive = 30% or less;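 also: compound concentration not given in the record; tested on top of an EC20 dose of dopamine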
# Target sequence (P14416 whole entry, looked up): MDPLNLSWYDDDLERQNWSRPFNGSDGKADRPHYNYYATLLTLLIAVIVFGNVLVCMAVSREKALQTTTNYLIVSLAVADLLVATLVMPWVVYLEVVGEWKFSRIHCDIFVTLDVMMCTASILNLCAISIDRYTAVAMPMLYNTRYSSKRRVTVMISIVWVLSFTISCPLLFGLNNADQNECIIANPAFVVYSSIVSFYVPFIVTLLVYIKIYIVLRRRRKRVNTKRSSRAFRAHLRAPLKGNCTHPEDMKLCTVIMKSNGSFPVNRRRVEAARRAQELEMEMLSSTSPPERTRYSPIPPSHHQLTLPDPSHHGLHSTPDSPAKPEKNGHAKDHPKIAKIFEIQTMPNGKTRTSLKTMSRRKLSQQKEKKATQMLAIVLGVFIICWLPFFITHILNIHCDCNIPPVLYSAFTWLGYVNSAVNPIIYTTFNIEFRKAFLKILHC
#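 PathHunter D2 cells, attached overnight at 37 deg C, received compound in DMSO plus dopamine at EC20 (50 nM final) for 90 min at 37 deg C. Beta-arrestin recruitment was read as luminescence after 1 h with detection reagent at ambient temperature.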
# D2 ag = activates the human D2 dopamine receptor. P14416. DiscoveRx PathHunter D2 beta-arrestin, luminescence, 90 min; 100% = 57 uM dopamine signal. activation, % (test concentration not listed). hit rate 0.084% among 360,000; in the data active = activation above about 40%; inconclusive = about 15% to 40%; inactive = below about 15%; also: compound concentration not given in the record; the text of the record calls up to 30% inactive
#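 DiscoveRx PathHunter D2 beta-arrestin cells (2,100/well) attached overnight, then compound-stimulated 90 min at 37 C in HBSS/10 mM HEPES/0.1% Tween-20 buffer; beta-galactosidase complementation read by luminescence after 1 h at ambient temperature. Dopamine 57 uM final (EC100) as control.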
# Six1-Eya2 inh = inhibitors of human Six1/Eya2 interaction; Q15475+O00167; AlphaScreen GST-Six1/His-Eya2 binding, biochemical; active compounds read low; control for the full effect not named in the record; activity change, % (concentration not given with the values); hit rate 0.56% among 360,000; AID 651725; in the data active = activity change below about -65%; inconclusive = about -30% to -65%; inactive = above about -30%; also: % is scaled to controls: 0 for no effect and ±100 for the full control effect
#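 Six1/Eya2 binding was read as AlphaScreen signal after compounds were pinned into GST-Six1 plus His-tagged Eya2 (5X stock 250/500 nM) in pH 8.0 Tris/NaCl/TCEP buffer, beads added, then incubated 1 h, 37 C, dark.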
# Sfp inh = blocks B. subtilis Sfp PPTase activity; Q9F4F7; Biochemical Sfp PPTase activity, qHTS; Potency, µM, without a hit: max response, negative = inhibition, usual class: inhibitors; hit rate 3.5% among 310,000; AID 1490; active = well fitted inhibition curve with a large enough effect; inconclusive = small, poorly fitted or top-dose-only effect, or another doubt; inactive = no such curve, though single readings can be large or run the other way;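 also: the enzyme is Sfp with the accession as filed and its product quenches rhodamine fluorescence; potency is read from the fitted curve at half-maximal effect; 0% = enzyme reaction without inhibitor and -100% = no enzyme wells; top concentration of the series not given in the record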
#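 Step 1, compound plus 15 nM Sfp-PPTase, 15 min, room temperature. Step 2, add rhodamine-CoA (5 uM) and BHQ-2-YbbR (12.5 uM). Step 3, read 525/598 nm fluorescence at 0 and 30 min.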
# CtBP-E1A blk = inhibitors of CtBP/E1A interaction | AlphaScreen GST-E1A/His-CtBP binding, 1536-well; active compounds read low; control for the full effect not named in the record | activity change, % (concentration not given with the values) | hit rate 0.49% among 340,000 | AID 651724; in the data active means activity change below about -65%; inconclusive means about -30% to -65%; inactive means above about -30%; also: % is scaled to controls: 0 for no effect and ±100 for the full control effect
#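 Steps: dispense buffer (Tris pH 8.0, NaCl 300 mM, TCEP 1 mM, BSA, Tween 20); add 5X protein mix (GST-E1A, His-CtBP, 125 nM each); pin 23 nL compound; 2 h at 37 °C, dark; add 5X beads (50 ug/mL); 1 h; read.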
# PINK1 expr mod = PINK1 expression modulation; PINK1 immunofluorescence, high-content cytometry, 24 h; Potency, µM (series often up to 76.6 µM), inactives show top-dose activation (PINK1 increase), actives largely listed as activators; hit rate 0.2% among 410,000; AID 624263; active = well fitted activation curve with a large enough effect; inconclusive = small, poorly fitted or top-dose-only effect; inactive = flat fitted curve, though single readings scatter; cell line not stated here;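 also: potency is read from the fitted curve at half-maximal effect; % of control where 0% means no effect; nearly all actives have a fitted effect of over 65% in size; a mitochondrial uncoupler was the plate control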
#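 Stable cell line, 250 cells/well, 12 h attachment; compounds pinned at 5 concentrations, 24 h; CCCP control. Fixed with nuclear dye, primary antibodies 12 h at 10 degrees C, secondary plus cell stain; laser-scanning cytometer read.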
# * = called active by the depositor; ? = inconclusive; . = no result given; [ ] = another dose, or the depositor's remark.
# Sample of the layout, five compounds:
SMILES,TRPV1 potentiator,D2 PAM,D2 ag,Six1-Eya2 inh,Sfp inh,CtBP-E1A blk,PINK1 expr mod
CCc1ccccc1Nc1nc(N)nc(COC(=O)CCNS(=O)(=O)c2ccccc2)n1,23,-6,-2.2,-8,.,-1,-1.3%
NC(=NCCc1ccccc1)NC(=O)c1cc(Cl)ccc1O,.,10,13,11,.,-2,?
COc1ccc(S(=O)(=O)N2CCCC2)cc1NC(=O)c1ccccc1F,3,-13,-6.1,1,7%,-10,14%
CC(C)CCC(O)(c1ccccc1)C(CN1CCOCC1)c1ccccc1 (stereo not given),-11,-10,-2.2,1,-2%,-1,-1.6%
CS(=O)(=O)c1ccccc1-c1nc(-c2cccc(Cl)c2)no1,?,-3,3.8,12,5%,9,-0.4%

# This part in full, from the start:
SMILES,TRPV1 potentiator,D2 PAM,D2 ag,Six1-Eya2 inh,Sfp inh,CtBP-E1A blk,PINK1 expr mod
CCc1ccccc1Nc1nc(N)nc(COC(=O)CCNS(=O)(=O)c2ccccc2)n1,23,-6,-2.2,-8,.,-1,-1.3%
NC(=NCCc1ccccc1)NC(=O)c1cc(Cl)ccc1O,.,10,13,11,.,-2,?
COc1ccc(S(=O)(=O)N2CCCC2)cc1NC(=O)c1ccccc1F,3,-13,-6.1,1,7%,-10,14%
CC(C)CCC(O)(c1ccccc1)C(CN1CCOCC1)c1ccccc1 (stereo not given),-11,-10,-2.2,1,-2%,-1,-1.6%
CS(=O)(=O)c1ccccc1-c1nc(-c2cccc(Cl)c2)no1,?,-3,3.8,12,5%,9,-0.4%
COC(=O)C(NC(=O)CCc1nnc2ccc(N3CCC(C)CC3)nn12)C(C)C (stereo not given),2,12,-4.4,5,5%,.,2.7%
O=C(COC(=O)c1cccc(Br)c1)NCCC1=CCCCC1,-11,-8,-13,3,-14%,2,-1.1%
OC[C@@H]1[C@@H](c2ccccc2)C(c2cccc(Cl)c2)=NN1c1ccccc1,.,-3,0.9,57,19%,55,1.8%
COc1ccc(C(CNC(=O)c2ccc(OCc3ccccc3)cc2)N2CCOCC2)cc1 (stereo not given),3,-12,-4.6,-7,.,2,-0.7%
CCc1cc(C(=O)N2CCCC(C(=O)c3ccc(Cl)cc3)C2)no1 (stereo not given),-19,-9,-1.5,5,9%,11,1.0%
COc1ccccc1NC(=O)Cn1cc(C(=O)C(=O)N2CCOCC2)c2ccccc21,9,-22,-2.7,2,-1%,1,8.1%
Cc1ccccc1-n1ncc(C(C)NC(=O)c2ccccc2)c1C (stereo not given),4,-1,2.7,2,17%,.,3.9%
O=C1CCC[C@@H]2C[C@@]3(C[C@@H]4CCN1[C@H]24)Nc1cc(Cl)c(Cl)cc1NC3=NCc1ccccc1,.,-29,-0.9,-18,.,0,1.9%
Cc1ccc(N=C2NC(=O)S/C2=C\c2ccco2)cc1,8,-9,-3.5,0,35µM*,-1,?
Cc1[nH]c2ccc(F)cc2c1CCN(Cc1ccncc1)C(=S)Nc1ccccc1,4,8,4.7,-15,7%,4,3.9%
Cc1ccc(C)c(NC(=O)C2CCN(C(=O)c3cccs3)CC2)c1,0,-7,-0.2,7,-1%,6,2.2%
O=C(CN1CCN(Cc2ccc(F)cc2Cl)C1=O)NCc1cccs1,-12,-4,-0.7,16,-9%,5,1.2%
Cc1ccc(NC(=O)CN(C)C(=O)CSc2nnc(C)s2)cc1,.,0,-0.2,-2,.,6,0.5%
COC(=O)COc1ccc(-n2cnnn2)cc1,11,1,-0.2,0,14%,0,1.6%
CCc1nc(N2CCN(S(=O)(=O)c3ccc(Br)cc3)CC2)c2c(C)c(C)sc2n1,.,-21,-3.6,3,.,9,1.5%[38.3 µM]
COC(=O)N1CCCC(c2cc(C(=O)Nc3ccccc3Cl)no2)C1 (stereo not given),.,-6,5.4,2,.,12,0.7%
Cc1cc(NC(=O)c2ccccc2C)n(-c2cccc(F)c2)n1,4,-4,-2.1,-16,-18%,-6,1.0%
O=c1cc(CN2CCCCCCC2)c2ccccc2o1,.,-11,-2.3,-2,.,0,0.4%
Cc1cccc(C)c1-n1nnnc1C(c1ccnc2ccccc12)N(C)Cc1ccccc1 (stereo not given),.,.,.,-5,.,0,9.9%
O=C(COC(=O)CCc1c[nH]c(=O)[nH]1)Nc1cccc(Cl)c1,16,-6,-2.6,-2,-11%,1,-0.4%[38.3 µM]
Cc1nc(Cc2nnc(SC(C)C(=O)N3c4ccccc4NC(=O)C3(C)C)o2)cs1 (stereo not given),17,6,1.1,0,.,.,1.8%
Cc1nn(CCOc2ccccc2)c(=O)n1-c1cccc(F)c1,2,4,-3.5,0,11%,6,5.6%[38.3 µM]
COC(=O)C1CCN(C(=O)COc2ccc(N(C)S(=O)(=O)c3ccc(C)cc3)cc2)CC1,-22,-18,0.5,6,.,-17,-0.7%
COc1ccc(S(=O)(=O)N2CCN(C(=O)c3cc(-c4ccccc4OC)n[nH]3)CC2)cc1,17,4,4.2,-6,4%,1,-2.8%
Cn1cc(C[C@H](NC(=O)OC(C)(C)C)C(=O)N[C@H](CO)Cc2ccccc2)c2ccccc21,.,-5,-0.8,-6,.,2,-0.7%
OCCNc1ncnc2c1nnn2Cc1ccccc1,-1,-5,3.0,-5,10%,-4,0.3%
CCOC(=O)c1c(/N=C/C2=C(O)CCCC2=O)sc2c1CCCC2,-9,-19,-3.5,1,-26%,.,2.4%
O=[N+]([O-])c1ccc(N/N=C/C=C/c2ccco2)cc1,.,-11,-2.1,1,.,.,26%
Cc1c(OCc2nn[nH]n2)ccc2c3c(c(=O)oc12)CCCC3,5,11,-0.2,-29,10%,?,3.9%
Fc1ccc(CN2CCN(c3ncccn3)CC2)c(F)c1,-1,29,60*,2,?,.,-0.5%
O=[N+]([O-])c1ccc(C2=Nn3cnnc3SC2)cc1,24,3,2.7,-2,4%,-2,2.3%
O=C(c1ccc(Cl)c(S(=O)(=O)NCc2ccco2)c1)N1CCN(c2ccccc2F)CC1,-4,?,0.0,-3,6%,-4,2.7%
CN(C)C(=O)NC(Nc1cccc([N+](=O)[O-])c1)C(Cl)(Cl)Cl (stereo not given),15,-1,-5.6,4,16%,6,-0.6%
CN1CCN(C(=O)c2ccc(-c3cnc4cccnn34)cc2)CC1,.,-8,-6.6,7,.,-22,4.6%
Cc1ccc2[nH]c(=O)c(CN(CCCN3CCOCC3)C(=O)Nc3cccc(Cl)c3)cc2c1,-22,-24,-5.7,1,3%,-4,11%

# Whole records as entered above. Values in the order: TRPV1 potentiator	D2 PAM	D2 ag	Six1-Eya2 inh	Sfp inh	CtBP-E1A blk	PINK1 expr mod
# `CCc1cc(C(=O)N2CCCC(C(=O)c3ccc(Cl)cc3)C2)no1` (stereo not given) is listed with -19	-9	-1.5	5	9%	11	1.0%
# `COc1ccc(S(=O)(=O)N2CCN(C(=O)c3cc(-c4ccccc4OC)n[nH]3)CC2)cc1` is listed with 17	4	4.2	-6	4%	1	-2.8%
# `COC(=O)N1CCCC(c2cc(C(=O)Nc3ccccc3Cl)no2)C1` (stereo not given) is listed with .	-6	5.4	2	.	12	0.7%
# `COc1ccccc1NC(=O)Cn1cc(C(=O)C(=O)N2CCOCC2)c2ccccc21` is listed with 9	-22	-2.7	2	-1%	1	8.1%

# D2 ag: hit marks shown above.
smiles | D2 PAM | D2 ag | Six1-Eya2 inh | Sfp inh | CtBP-E1A blk | PINK1 expr mod
Fc1ccc(CN2CCN(c3ncccn3)CC2)c(F)c1 | 29 | 60* | 2 | ? | . | -0.5%

# The list continues:
SMILES,TRPV1 potentiator,D2 PAM,D2 ag,Six1-Eya2 inh,Sfp inh,CtBP-E1A blk,PINK1 expr mod
COc1ccccc1C(=O)N(Cc1ccccc1)c1ccc(C)cc1,-9,-11,-5.5,7,7%,4,1.0%
CCOc1ccc(CN(C)C(=O)CN2C(=O)NC3(CCCc4ccccc43)C2=O)cc1 (stereo not given),1,1,0.4,0,.,3,2.1%
COc1ccc(NS(=O)(=O)c2cc(C)ccc2C)cc1,-5,-1,-0.5,1,11%,1,3.7%
Cn1cccc1Cc1nnc(SCC(=O)NCC2CCCO2)n1CCc1ccccc1 (stereo not given),-6,-2,0.7,-3,-9%,0,-2.1%[38.3 µM]
Cc1ccc(C)n1CCN1CCN(S(=O)(=O)c2ccc(F)cc2F)CC1,-1,0,2.6,-2,4%,7,-0.6%
COc1ccccc1NC(=O)c1ccc(Cl)c(S(=O)(=O)NCc2ccco2)c1,5,0,4.1,-9,.,-7,1.0%
CCC(C)(C(=O)NC1CCCC1)N(C(=O)CC1NC(=O)NC1=O)c1c(C)n(C)n(-c2ccccc2)c1=O (stereo not given),-2,-4,-2.7,-2,15%,0,0.5%
O=C(c1ccc(F)cc1F)N1CCC(N2CCC(C(=O)N3CCOCC3)CC2)CC1,-4,-15,-3.0,-5,13%,-10,-0.6%
COc1cc(/C=N/NC(=O)c2ccc(F)cc2)ccc1OC(=O)c1ccco1,8,-2,3.0,-4,-5%,-6,-0.9%
O=C(NCc1ccccc1)N1CCC(CO)(Cc2cccc(F)c2)CC1,-3,-13,-4.7,4,16%,.,-0.3%
O=C(Nc1ccccc1)OC[C@@H]1C=CS(=O)(=O)N1Cc1ccc(Br)cc1,.,-3,-1.8,1,.,-1,-0.9%

# In the list so far, 3 have two or more sulfur atoms.
SMILES,TRPV1 potentiator,D2 PAM,D2 ag,Six1-Eya2 inh,Sfp inh,CtBP-E1A blk,PINK1 expr mod
Cc1ccc(NC(=O)CN(C)C(=O)CSc2nnc(C)s2)cc1,.,0,-0.2,-2,.,6,0.5%
CCc1nc(N2CCN(S(=O)(=O)c3ccc(Br)cc3)CC2)c2c(C)c(C)sc2n1,.,-21,-3.6,3,.,9,1.5%[38.3 µM]
Cc1nc(Cc2nnc(SC(C)C(=O)N3c4ccccc4NC(=O)C3(C)C)o2)cs1 (stereo not given),17,6,1.1,0,.,.,1.8%
